Screening results deposited in PubChem by several laboratories.
B2AR ag – beta2AR agonists driving receptor internalization, primary screen, cell-based, FAP fluorogen, flow cytometry; Beta-2 adrenergic receptor (Homo sapiens), P07550; Am2.2-beta2AR cells; reference of the scale not given here; response, % (concentration not given with the values); 0.43% of 340,000 active; AID 504454, 2011;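 active = response above a set limit, near 3 SD of response in nonfluorescent compounds, cut at about 42% in these data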;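 note: stock transfer was 100 nL into about 11 µL; a reference agonist was the positive control; negative values mostly stem from fluorescent compounds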
A1 inh – caspase 3/7 activation in MEF A1-2A-BIM cells, primary screen, A1 inhibitor project, cell-based, luminescence, HTS; Caspase-Glo 3/7 luminescence, 3 h; percent of clofoctol response, vehicle zero; caspase activation, % (no concentration beside the values); 0.066% of 330,000 active;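 active = over half of replicate activation scores above 10%, or exactly half above 10 with the replicate mean above 10; inconclusive = replicate mean below 10 yet half the replicates above 10; inactive = over half of replicates below 10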;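 note: wells of about 30 µL received 50 nL stock; many hits fall short of the cut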
RanGTP-Impb inh – inhibitors of RanGTP-importin-beta interaction, primary screen, biochemical, FRET, CFP-Ran, YFP-importin-beta, homogeneous; Ran GTPase (GTP-bound) - importin-beta complex; cell-free CFP-Ran/YFP-importin-beta FRET ratio; inhibition, % (concentration not given with the values); 1.1% of 300,000 active;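 active = most replicates above 15%; inconclusive = exactly half above 15%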;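 note: 0% = DMSO wells and 100% = Ran loaded with GDP instead of GTP; wells of about 40 µL received 100 nL stock; the first replicate is given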
Calb FLC – C. albicans growth inhibition with fluconazole, primary screen, CaCi-2 strain, Alamar Blue fluorescence. C. albicans CaCi-2 (fluconazole-resistant clinical isolate) + fluconazole, 48 h. growth inhibition, % (concentration not given with the values). 0.57% of 300,000 active. AID 1979, 2009;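 active = most replicates above 75%; inconclusive = exactly half above 75%; inactive = most below 75%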;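 note: all wells also contain fluconazole at 8 µg/ml as a sub-toxic cotreatment; 0% = median of DMSO wells and 100% = median of geldanamycin control wells; wells of about 8 µL received 7.5 nL stock; the first replicate is given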
UCH37 DUB inh – inhibitors of human UCH37 deubiquitinase, primary screen, biochemical, Ub-AMC cleavage, fluorescence. purified proteasome/UCH37. inhibition, % (concentration not given with the values). 0.33% of 330,000 active;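 active = mean of two replicates above 20%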;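 note: 0% = compound-free wells with enzyme and 100% = wells lacking proteasome; stock transfer was 100 nL into about 20 µL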
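system = Proteasome-associated human UCH37 deubiquitinase | amount = 0.15 nM proteasome as dispensed | medium = pH 7.4 Tris-HCl (50 mM) with ovalbumin, ATP-MgCl2, DTT | incubation = 30 min preincubation with enzyme, 25 min cleavage at room temperature | detection = AMC fluorescence 355/460 nm | read-out basis = percent inhibition | controls = no-proteasome and no-compound wells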
T cruzi repl – inhibitors of intracellular T. cruzi growth, primary screen, luminescence, NIH3T3 host cells | T. cruzi beta-gal in NIH3T3, 90 h | 1.4% of 300,000 active | inhibition, % (test concentration not listed);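 active = mean inhibition across valid replicates above about 55%, limit read from the data; inconclusive = mean below that limit but half or more replicates reach it; inactive = mean below it, under half of replicates reach it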;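 note: signal also drops with host cell toxicity which is not excluded here; 0% = plate median of DMSO wells and 100% = zero luminescence signal; higher percent means less beta-gal luminescence so fewer parasites; stock transfer was 50 nL into about 50 µL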
LANA-H2B inh – blockers of LANA interaction with H2A/H2B – biochemical, FP readout, HTS, primary screen | cell-free LANA-H2A/H2B peptide, fluorescence polarization | inhibition, % (concentration not given with the values) | 0.6% of 320,000 active | AID 2629, 2010; in the data active = inhibition mostly above about 10%, no sharp cut-off; inactive = mostly below about 6.7%;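 note: stock transfer was 7.5 nL into about 10 µL; 0% = median of vehicle wells and 100% = median of positive control wells; one replicate is shown; the record names a cut of 25% in any replicate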
Target sequence (Q9QR71 whole entry, looked up): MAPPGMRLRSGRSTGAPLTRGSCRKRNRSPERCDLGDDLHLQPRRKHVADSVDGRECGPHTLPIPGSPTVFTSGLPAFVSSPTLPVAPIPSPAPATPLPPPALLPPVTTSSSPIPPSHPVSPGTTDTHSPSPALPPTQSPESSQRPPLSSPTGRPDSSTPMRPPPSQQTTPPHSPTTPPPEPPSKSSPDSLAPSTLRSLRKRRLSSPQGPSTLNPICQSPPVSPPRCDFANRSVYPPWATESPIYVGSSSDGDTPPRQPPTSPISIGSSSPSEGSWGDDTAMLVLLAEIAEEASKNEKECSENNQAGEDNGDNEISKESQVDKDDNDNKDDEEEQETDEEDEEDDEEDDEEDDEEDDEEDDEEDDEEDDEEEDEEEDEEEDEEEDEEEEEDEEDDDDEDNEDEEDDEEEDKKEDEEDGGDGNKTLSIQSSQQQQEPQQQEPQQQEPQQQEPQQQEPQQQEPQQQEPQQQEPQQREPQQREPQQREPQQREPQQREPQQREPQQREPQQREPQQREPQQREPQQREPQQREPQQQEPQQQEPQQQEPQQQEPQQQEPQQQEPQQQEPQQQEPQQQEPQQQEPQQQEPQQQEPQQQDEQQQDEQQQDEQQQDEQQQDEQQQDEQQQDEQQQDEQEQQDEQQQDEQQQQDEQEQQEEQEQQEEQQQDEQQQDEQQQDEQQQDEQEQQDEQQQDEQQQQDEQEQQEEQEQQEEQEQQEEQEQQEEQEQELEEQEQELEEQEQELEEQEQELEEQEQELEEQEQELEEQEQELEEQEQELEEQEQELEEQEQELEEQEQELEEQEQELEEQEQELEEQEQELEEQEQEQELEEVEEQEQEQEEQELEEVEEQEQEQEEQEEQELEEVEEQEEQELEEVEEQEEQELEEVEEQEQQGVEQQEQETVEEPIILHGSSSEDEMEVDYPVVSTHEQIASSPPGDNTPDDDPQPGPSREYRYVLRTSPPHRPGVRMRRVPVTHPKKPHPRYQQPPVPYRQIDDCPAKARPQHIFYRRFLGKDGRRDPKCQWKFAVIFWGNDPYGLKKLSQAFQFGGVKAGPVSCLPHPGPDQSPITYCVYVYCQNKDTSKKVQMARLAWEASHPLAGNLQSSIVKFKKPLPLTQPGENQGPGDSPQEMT
Beta apoptosis – inhibitors of cytokine-induced beta cell apoptosis, primary screen, luminescence; INS-1E cytokine-induced death, ATP luminescence, 48 h; percent of positive-control rescue, neutral wells zero; protection from apoptosis, % (no concentration beside the values); 0.8% of 300,000 active;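 active = all replicates at 75% or more, or half of them and the mean; inconclusive = half reach 75% but not the mean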;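 note: 0% = cytokine-treated negative control wells and 100% = positive control rescue; higher means more ATP so stronger rescue from cytokine killing; wells of about 40 µL received 100 nL stock; the first replicate is given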
* hit, by the source's call; i = inactive; ? = inconclusive; · = not tested or not shown.

molecule,B2AR ag,A1 inh,RanGTP-Impb inh,Calb FLC,UCH37 DUB inh,T cruzi repl,LANA-H2B inh,Beta apoptosis
COc1ccc2c(c1)C=C(C(=O)OCc1cccnc1)CO2,-9,0.3,?,-2,-6.7,-11,-1.8,-10
CC(=O)Nc1ccc(OS(=O)(=O)c2ccc(Cl)cc2)cc1,1,0.9,4.0,-5,3.9,-1,-3.0,2
CCc1c(C)sc(NC(=O)c2cccs2)c1C(=O)OC(C)C,29,-0.7,0.4,-11,-70,26,4.0,·
CC1CCN(C(=O)C2CCN(S(=O)(=O)c3cccnc3)CC2)CC1,3,1.1,-2.5,1,0.9,0,15,3
CC(=O)NC(c1ccccc1)c1c(O)ccc2ccccc12 (stereo not given),-6,0.4,-1.3,-2,-28,2,1.1,-3
c1ccc(-c2ccc(-c3nc(-c4ccncc4)no3)cc2)cc1,-9,-6.8,3.1,-8,0.7,38,-1.2,-5
CSCCC(NS(=O)(=O)c1ccc(Cl)cc1)C(=O)OCC(=O)N(C(C)C)C(C)C (stereo not given),3,1.0,1.0,0,2.1,-7,2.1,0
C=CCn1cc(C(=O)OCC)c(=O)c2ccc(F)cc21,-2,0.6,0.9,12,0.1,-5,-3.3,-11
COc1ccc(S(=O)(=O)Nc2ccccc2C(=O)NC2CC2)cc1NC(C)=O,2,3.3,·,·,-17,·,1.7,-3
COCC1CCCCN1C(=O)c1cccc(OC2CCN(C(=O)C3CC3)CC2)c1 (stereo not given),-2,-0.2,-2.3,4,4.0,-8,-1.4,7
CCOc1ccc(C2c3[nH]c4ccccc4c3C[C@H]3C(=O)N(C4CCN(Cc5ccccc5)CC4)CC(=O)N23)cc1OC (stereo not given in full),19,-0.2,?,4,4.0,38,2.2,-3
CCOC(=O)c1cc(-c2ccc(F)cc2)n(CCC(=O)NC2CCN(Cc3ccccc3)CC2)c1C,-10,-0.1,3.9,-4,6.0,78*,-0.7,5
CCCCN(CCO)c1ncnc2sc(-c3ccccc3)cc12,9,-0.2,2.1,-5,-23,39,3.4,14
O=C(Cn1c(SCC(=O)N2CCCc3ccccc32)nc2ccccc21)N1CCCC1,3,-1.0,-3.2,-30,2.0,23,-4.3,·
Cc1c(C)c2ccc(OC(C)C(=O)NCCc3c[nH]c4ccccc34)cc2oc1=O (stereo not given),-6,0.0,1.7,4,3.4,15,-1.5,3
O=C(NCc1ccc2c(c1)OCO2)c1cccc(F)c1,-11,-0.4,?,-7,-1.2,-15,-4.8,-4
O=C(c1cc2c(ccc3ccccc32)oc1=O)N1CCCC1,-12,0.7,-0.1,1,i,8,-2.9,-11
CCc1c(C)nc(SCC(=O)NNC(=O)Cc2ccc(OC)cc2)[nH]c1=O,2,-0.1,-0.2,6,4.0,-4,1.8,-10
CC(CN1CCOCC1)OC(=O)CCc1ccccc1 (stereo not given),2,1.3,-0.8,-5,0.5,0,-2.6,0
COc1ccc(-c2csc(N(CCc3ccc(OC)c(OC)c3)C(=O)COc3ccccc3)n2)cc1,-11,-0.1,-1.2,-19,5.0,54,5.5,3
CN(C)CCCC1(O)c2ccccc2CCc2ccccc21,2,0.3,-1.2,-1,3.6,-21,-3.6,0
OCCC1CN(Cc2cccn2-c2cccnc2)CCN1Cc1ccc(F)cc1 (stereo not given),3,0.2,27*,-9,-0.5,17,0.9,0
Cc1c(NC(=O)Oc2ccccc2)sc(=S)n1C,-2,-0.8,2.2,9,7.9,-35,7.0,·
CC(C)C(c1nnnn1Cc1ccco1)N1CCC(C(N)=O)CC1 (stereo not given),-1,0.5,9.5,5,1.6,-9,-0.1,-5
CC(Oc1ccc(C(C)(C)C)cc1)c1ccnc2nc(/N=C/N(C)C)nn12 (stereo not given),-15,-1.2,4.9,-1,·,8,0.7,1
CN(C)CCNC(=O)Cn1ccc2cc(S(=O)(=O)N3CCCCC3)ccc21,3,2.7,1.9,-2,-1.4,39,9.4,-1
COc1cc2c(cc1OC)C1(Nc3c-2c(Cc2ccccc2)nn3-c2ccccc2)C(=O)Nc2ccccc21 (stereo not given),5,-0.3,24*,-3,0.9,16,2.5,2
COc1ccc(C)cc1NC(=O)CO/N=C(\N)CC(=O)Nc1ccccc1OC,12,0.3,·,·,0.9,·,-3.2,-4
Cc1onc(-c2ccccc2Cl)c1C(=O)NCc1ccc(F)cc1,-1,0.8,0.5,-8,5.0,-17,-3.8,·
Cc1ccc(/C=c2\s/c(=C(/C#N)C(=O)N3CCCC3)n(Cc3ccco3)c2=O)s1,5,-0.1,-4.1,-3,·,-16,3.0,-1
O=C(NN/C(=N/S(=O)(=O)c1ccc(Cl)cc1)c1ccccc1)c1ccc(O)cc1,0,-8.8,3.3,-11,2.7,-52,-1.8,11
CCc1ccc(/C=C2\SC(=S)N(CCC(=O)Nc3cc(C)on3)C2=O)cc1,-4,0.1,-4.1,1,4.0,-16,-5.9,-1
O=C(NC(=S)Nc1ccc(Br)cc1F)C1CCCCC1,-8,-0.5,·,·,2.2,·,2.0,-11
COc1ccc(S(=O)(=O)N(C)C[C@H]2Oc3c(cccc3N(C)C)C(=O)N([C@H](C)CO)C[C@@H]2C)cc1,5,-0.5,·,·,4.5,·,9.9,-1
S=C(NCCc1ccccc1)Nc1nccs1,-2,-1.0,-0.3,-16,1.2,-10,5.8,2
CCCCc1nnc(NC(=O)CS(=O)(=O)Cc2ccccc2)s1,-2,-0.1,-3.4,-1,0.0,-18,-3.8,-15
COc1ccccc1N1CCN(C2CCC(C)CC2)CC1 (stereo not given),-3,-0.9,2.9,-3,-0.5,-9,-2.7,4
Cc1cc(N(C)/N=C/c2ccccc2)nc(-c2ccccc2O)n1,0,0.0,5.5,6,·,26,1.5,-1
CCN1C(=O)CC(NCc2ccc(S(N)(=O)=O)cc2)C1=O (stereo not given),-4,-0.1,2.7,1,-0.3,-9,-3.9,-1
COc1ccccc1NC(=O)C1CCCN(c2ncnc3c2nc2n3CCCCC2)C1 (stereo not given),-1,-0.3,?,3,1.2,9,2.3,-1
O=C(N/C(=C/c1ccccc1)C(=O)N1CCOCC1)c1ccc([N+](=O)[O-])cc1,-12,0.0,-0.4,25,3.8,-1,-1.3,-4
Clc1ccccc1Sc1ccc(-c2ccccn2)s1,1,0.6,-1.3,8,-8.2,1,2.4,-6
COc1ccc(NC(=O)c2nnn(Cc3ccc(SC)cc3)c2N)c(OC)c1,-11,-1.3,-3.9,-2,-49,-7,1.2,-1
Cc1ccc(C(=O)/C=C2\NCCNC2=O)cc1,-1,-4.7,-1.6,-3,15,1,3.7,1
COC(=O)C(C(=O)OC)=C(/C=C/N(C)C)N(C)C,6,0.3,7.3,-9,11,-14,2.8,3

Pulled one by one from the entries so far:
molecule,B2AR ag,A1 inh,RanGTP-Impb inh,Calb FLC,UCH37 DUB inh,T cruzi repl,LANA-H2B inh,Beta apoptosis
COc1ccc(NC(=O)c2nnn(Cc3ccc(SC)cc3)c2N)c(OC)c1,-11,-1.3,-3.9,-2,-49,-7,1.2,-1
O=C(NC(=S)Nc1ccc(Br)cc1F)C1CCCCC1,-8,-0.5,·,·,2.2,·,2.0,-11

(further entries)
molecule,B2AR ag,A1 inh,RanGTP-Impb inh,Calb FLC,UCH37 DUB inh,T cruzi repl,LANA-H2B inh,Beta apoptosis
CC(C)CC(=O)Nc1nnc(S(=O)(=O)N(C)c2ccc(Cl)cc2)s1,9,1.2,3.2,-16,2.2,-19,-3.5,-5
NC1=NC(=O)/C(=C/c2ccc(Br)cc2)S1,-4,1.3,?,-4,-1.0,0,13,-3
O=C(O)CCc1nc(-c2ccccc2)no1,1,-1.5,-0.9,-16,4.0,-4,2.0,2
Cc1nc2ccccc2n1Cc1ccccc1,-6,0.2,4.3,-19,3.3,-21,0.4,5
COc1ccc(CN(C(=O)c2oc3ccccc3c2C)C2CCS(=O)(=O)C2)cc1OC (stereo not given),-12,-0.5,·,·,3.3,·,3.5,2
O=C(c1cc(S(=O)(=O)N2CCCCC2)ccc1F)N1CCCCC1,5,0.7,-0.6,-25,-0.3,10,4.1,-4
CNC(=O)c1cc(NC(=O)CCn2nc(-c3ccc(C)cc3)c3ccccc3c2=O)ccc1OC,-5,-0.6,-1.6,-8,6.3,28,-8.7,2
CN(C)CCN(C(=O)c1ccc2c(c1)OCCO2)c1nc2c(Cl)cccc2s1,2,-0.4,-0.2,3,4.9,26,-0.4,-9
O=C1CSC(c2cn(-c3ccccc3)nc2-c2cc3ccccc3oc2=O)N1Cc1ccco1 (stereo not given),-9,-1.2,?,19,-141,-2,1.1,7
Cc1ccc(N(Cc2ccccc2F)S(C)(=O)=O)c(C)c1,0,0.3,1.6,3,2.8,-6,3.3,-3
Cc1cc(C)n2nc(S(=O)(=O)NC3CCCCC3)nc2n1,-5,-1.2,4.7,7,-1.4,-3,-2.9,-6
CC(C)c1ccc(C(C)NCCS(=O)(=O)c2ccc(Cl)cc2)cc1 (stereo not given),-4,-0.8,-2.3,-2,·,25,-0.2,-6
CC1(c2ccc(OCC#N)cc2)C=C(c2ccc(OCC#N)cc2)n2nc(C(F)(F)F)nc2N1 (stereo not given),8,-0.3,0.2,31,3.7,48,5.6,14
COc1cc(NC(=O)c2cccc([N+](=O)[O-])c2C)ccc1NC(=O)c1ccco1,-3,-0.1,-4.0,49,3.8,18,-1.1,8
CNC(=S)N1N=C(c2ccc(Br)cc2)CC1c1ccc(N(C)C)cc1 (stereo not given),-9,-0.4,3.0,-2,1.4,49,0.2,7
O=S(=O)(Nc1cccc2ccccc12)c1ccccc1,-3,·,-2.9,50,4.2,-15,·,·
Cc1ccc(S(=O)(=O)N2CCCCC2)cc1C(=O)NCC1CCCO1 (stereo not given),-4,-1.2,-0.6,5,-0.4,-9,-1.5,-4
COC(=O)CSc1nc(C)cc(N2CCOCC2)n1,-1,0.8,1.4,33,-1.8,-4,0.3,4
O=C(O)c1cccc(-n2cccc2/C=C2\NC(=O)N(Cc3ccc(F)cc3)C2=O)c1,4,-0.1,1.6,30,10,-3,-5.6,-15
CN1c2ccsc2C(O)=C(C(=S)Nc2ccc(F)c(Cl)c2)S1(=O)=O,5,-3.2,124*,-2,19,-17,-0.9,·
Cc1c(NS(=O)(=O)c2cc(C(=O)OCC(=O)N3CCC(C)CC3)ccc2Cl)c(=O)n(-c2ccccc2)n1C,0,0.9,-2.4,33,3.0,7,2.4,1
COc1ccc(CNC(=O)C(=O)NC2CCC(C)CC2)cc1 (stereo not given),-5,0.2,2.8,14,3.0,7,-4.3,-5
CCCC(=O)Nc1ccc(N2CCN(C(=O)c3cccs3)CC2)cc1,-4,-0.2,-3.0,-33,4.4,7,-4.2,5
